Screening data as filed in PubChem.
ClpP mod – qHTS Assay for Activators of ClpP | purified B. subtilis ClpP, FRET peptide cleavage, 20 min | Potency, µM (titrated, usually from 57.5 µM), inactives show at the highest dose activity change, negative = active | ATP-dependent Clp protease proteolytic subunit (Bacillus subtilis (strain 168)), P80244 | hit rate 1.9% among 340,000; active = well fitted falling curve with a large enough effect; inconclusive = small, poorly fitted or top-dose-only effect; inactive = no such curve, though single readings can be large or run the other way; also: the source files actives as falling curves though it sought activators and does not explain the sign; nearly all actives have a fitted effect of over 65% in size; many hits overshoot -100%
Target sequence (P80244 whole entry, looked up): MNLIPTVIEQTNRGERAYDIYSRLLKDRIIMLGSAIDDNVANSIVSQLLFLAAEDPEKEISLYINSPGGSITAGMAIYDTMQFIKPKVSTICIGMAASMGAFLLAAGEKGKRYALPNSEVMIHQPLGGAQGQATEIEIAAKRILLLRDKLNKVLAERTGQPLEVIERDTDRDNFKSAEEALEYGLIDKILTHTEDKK
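Buffer: 100 mM Tris/HCl pH8, 100 mM KCl, 0.05% low protease BSA, 2.5% glycerol, 0.01% Tween-20. ClpP 10 microg/mL final; 20 min RT; delta FRET normalized to ADEP and DMSO controls.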
An asterisk follows results filed as active; ? = inconclusive. Potency is read from the fitted curve at half-maximal effect. These rows are one share of the data; the hit share may differ from the screen's.

SMILES	ClpP mod
O=C(CCNS(=O)(=O)c1cccc2nonc12)Nc1ccc(F)cc1	-1.2%
CCOC(=O)c1cc(-c2ccc(C)cc2)n(CC(=O)Nc2ccc(OC)cc2OC)c1C	-1.5%
O=C(Cn1nc2c(cc1=O)CCCC2)Nc1ccccc1C(F)(F)F	0.2%
Cc1ccc(C(=O)n2nc(C)c(S(=O)(=O)N3CCCCCC3)c2C)cc1	2.3%
O=C(Cn1nc(-c2ccccc2)nc(Cc2ccccc2)c1=O)Nc1ccccc1	-0.5%
Nc1[nH]c(=S)nc2nnsc12	0.1%
CC(C)(C)OC(=O)N1CCC(c2c(C(=O)N3CCN(c4ccccn4)CC3)cnn2-c2ccccc2Cl)CC1	?
Cc1ccc(NC(=O)c2sc3nc4c(cc3c2N)CN(Cc2ccccc2)CC4)cc1	-7.1%
CC1=C(C(=O)NCc2cccc(F)c2)C2(CCCCC2)OC1=O	-4.7%
COc1cc(OC)c(NC(=O)c2cc3c(=O)oc4ccc(C)cc4c3s2)cc1Cl	-1.5%
O=C(CC1c2cc(F)ccc2C=C(c2ccsc2)N1c1ccc(C#CCCO)cc1)c1ccco1 (centres undefined)	-6.8%
Cc1ccc(-c2nc3ccc(Cl)cn3c2Nc2ccc3c(c2)OCCO3)s1	-28%
CC(C)NC(=O)C1(C)CN(S(C)(=O)=O)CC(=O)N1C1CCN(Cc2ccccc2)CC1 (centres undefined)	1.0%
Cc1ccc(-n2nc(C(=O)NCc3ccc(F)cc3Cl)c3c4ccccc4n(C)c3c2=O)cc1	-15%
CCOC(=O)c1c(-c2ccccc2)oc2ccc(NS(=O)(=O)c3cc(C)c(C)cc3C)cc12	4.0%
Cc1cccc(NC(=O)C(NS(=O)(=O)c2ccc3c(c2)oc(=O)n3C)C(C)C)c1 (centres undefined)	-0.6%
CCOc1ccc(Nc2nn(-c3ccc(OC(F)(F)F)cc3)nc2C(C)=O)cc1	3.2%
CCC(Oc1ccccc1)C(=O)Nc1ccc(O)c(-c2nc3cc(C)ccc3o2)c1 (centres undefined)	-5.4%
COc1cc2cc(C(=O)NCCc3c[nH]c4ccccc34)c(N)nc2cc1OC	?
O=C(CCSCc1cccc(Cl)c1)NCc1ccc(F)cc1Cl	-1.9%
Cc1ccc(OCCCCn2nnc3sc4c(c3c2=O)CCCC4)cc1	-0.3%
CCc1ccc(-c2nc3cc(NC(=O)c4ccc(F)cc4)ccc3o2)cc1	-14%
O=C(NCc1cccnc1)C1CCN(Cc2cc3ccccc3n2Cc2cccc(Cl)c2)CC1	-4.7%
Cc1ccc(-n2ncc(C(=O)N3CCN(Cc4ccccc4)CC3)c2C2CCN(C(=O)OC(C)(C)C)CC2)cc1	-1.1%
COC1=CC(=O)OC(c2cccc([N+](=O)[O-])c2)C1 (centres undefined)	0.3%
Other entries follow:
SMILES	ClpP mod
COCCCNC(=O)c1nn(-c2ccc(C)cc2)c(=O)n(C)c1=O	3.2%
COc1ccc(-n2nnc(-c3nsc(NC(=O)c4ccc(C)c(C)c4)n3)c2C)cc1Cl	-2.3%
O=c1nc2sc3ccccc3n2c(=O)n1-c1ccc(Cl)c(Cl)c1	0.2%
Nc1[nH]c(C(=O)c2ccccc2)c(-c2cccc3ccccc23)c1C(=O)NCc1ccccc1	2.3%
CCCOc1ccc(CNC(=O)c2ccc3c(c2)N(Cc2ccccc2)CCS3)cc1	3.8%
COc1cccc(-n2cc(C(=O)Oc3ccc(F)cc3)c3ccccc3c2=O)c1	?
CCc1ccccc1N(C)C(=O)Cc1c(C(=O)O)c(C)cn1C	1.2%
Cc1ccc(C(=O)N2CCC(N3CCN(Cc4ccc(F)cc4)C(=O)C3=O)CC2)cc1	-2.2%
Cc1oc2ccc(O)c(CN3CCOCC3)c2c1C(=O)Nc1cccc(Cl)c1C	-0.7%
COc1ccc(CNC(=O)c2ccc3nc(CCc4ccccc4)oc3c2)c(OC)c1	-1.2%
COc1ccc(NC(=O)c2sc3nc4c(cc3c2N)CCCCCC4)cc1Cl	13µM*
COc1cccc(-n2c(=O)c3sc4ccccc4c3n(Cc3c(F)cccc3Cl)c2=O)c1	-16%
CCOC(=O)N1CCC2(CC1)OC(=O)C(C)=C2C(=O)NCc1ccccc1OC	0.2%
Cc1[nH]n(-c2ccccc2)c(=O)c1C(c1cc(Cl)ccc1O)c1c(C)[nH]n(-c2ccccc2)c1=O	0.5%
O=C(CCn1c(=O)c2sccc2n(Cc2ccccc2F)c1=O)NCc1ccc2c(c1)OCO2	-3.1%
Cc1ccc(C)c(NC(=O)C(C)n2c(=O)cc(C(F)(F)F)c3c(C)nn(C)c32)c1 (centres undefined)	-0.1%
CCOC(=O)COc1ccc(CC)cc1C(=O)c1ccn2nc(-c3ccc(C)cc3)cc2n1	-4.8%
CCc1ccc2oc(-c3ccc(C)c(NC(=O)c4ccc(C#N)cc4F)c3)nc2c1	-17%
COC(=O)C1=CN(c2ccc3c(c2)OCO3)C(N)=C(C#N)C1c1ccc(-c2ccccc2)cc1 (centres undefined)	-6.1%
COc1cc(C2N=C(N)Nc3nc4ccccc4n32)ccc1OCCC(C)C (centres undefined)	-22%
CCc1ccc(NC(=O)CN2CCN(C3CCCCC3)C(=O)C2=O)cc1	2.1%
Cc1ccc(S(=O)(=O)C(CNC(=O)C(=O)NCCc2ccccc2)c2cccs2)cc1 (centres undefined)	-5.8%
COc1cc2ccccc2cc1C(=O)Nc1ccc2oc(-c3ccc(F)cc3)nc2c1	-4.6%
CCCn1c(=O)c2c(nc3n2CCN3c2ccc(C)cc2)n(C)c1=O	-14%
COc1ccc(NC(=O)CCCc2nnc3n(CCC(C)C)c(=O)c4sccc4n23)cc1Cl	-0.6%
Additional entries.
SMILES	ClpP mod
O=C(Cc1ccccc1)Nc1sc2c(c1C(=O)Nc1ccccc1)CCCCC2	-10%
O=C1CC(c2nc(-c3ccc(Cl)cc3)no2)CN1c1ccc2c(c1)OCCO2 (centres undefined)	-3.4%
COc1cc(-c2nc3nc[nH]n3c2Nc2ccc(C(C)C)cc2)ccc1O	2.2%
O=C(NCCc1ccc(Cl)cc1)c1cccn1-c1nnc(N2CCCC2)s1	-2.6%
Cc1ccc(-c2nc(N3CCCC(C)C3)c3ccccc3n2)cc1 (centres undefined)	?
CSc1cccc(NC(=O)Cn2c(=O)n(Cc3ccccc3)c(=O)c3sc4ccccc4c32)c1	?
COC(=O)c1ccc2c(c1)N(Cc1ccc(F)cc1)C(=O)c1ccccc1S2	-1.4%
COc1ccc(NC(=O)CSc2nc(C)cc(C)c2C(=O)Nc2ccccc2OC)cc1	0.0%
COc1cc(C(=O)N2CCc3c([nH]c4ccccc34)C2c2ccc(C)cc2)cc(OC)c1OC (centres undefined)	-4.6%
COc1cc(C2c3c(-c4ccccc4O)n[nH]c3C(=O)N2CCO)ccc1OCc1ccccc1 (centres undefined)	0.7%
Cc1cc(C)c(NC(=O)CN2C(=O)c3cccnc3Oc3ccc(C)cc32)c(C)c1	-0.2%
Cc1ccc2cccc(NC(=O)c3ccc(-c4ccc(Br)cc4)o3)c2n1	0.1%
CN(C)c1c(Cl)cc(/C=C2\C=Cc3ccccc32)cc1Cl	0.1%
COc1cc(NC(=O)N2CCC(CN3CCOCC3)CC2)cc(OC)c1OC	0.5%
COc1cccc(NC(=O)C(=O)NCC(c2cccnc2)N2CCN(c3ccccc3)CC2)c1 (centres undefined)	-1.4%
COc1ccc(-c2noc(CSc3nnc(C)n3-c3ccc(OC)cc3)n2)cc1	0.1%
Cc1c(-c2nsc(NC(=O)c3cccs3)n2)nnn1-c1ccc(Br)cc1	-14%
CCn1c(=O)n(-c2ccc3c(c2)OCO3)c2nc(-c3cccc(OC)c3OC)nc(C(N)=O)c21	3.3%
CC1=Nc2cc(C(=O)NC3CCCC3)ccc2Sc2ccc(Br)cc21	0.9%
CCc1ccccc1NC(=O)Cn1ccn(-c2cc(C)cc(C)c2)c(=O)c1=O	-4.9%
CCOc1ccc(N(C(=O)c2ccccc2F)S(=O)(=O)c2ccc3c(c2)n(C)c(=O)n3C)cc1	0.6%
CCN(CC)CC(=O)c1c(C)n(C)c2ccc(OC)cc12	-9.8%
Cc1ccc(NC(=O)Cn2cc(S(=O)(=O)Cc3ccc(F)cc3)c3ccccc32)cc1Cl	-2.9%
COC(=O)c1ccc(NC(=O)c2cnn(-c3ccc(Cl)cc3)c2C2CCN(C(=O)OC(C)(C)C)CC2)cc1	-6.5%
CC(=O)N1CCOc2cc(S(=O)(=O)N(C)Cc3ccccc3)c(Cl)cc21	-0.8%

Entries listed so far that have two or more sulfur atoms (4):
SMILES	ClpP mod
Nc1[nH]c(=S)nc2nnsc12	0.1%
Cc1ccc(S(=O)(=O)C(CNC(=O)C(=O)NCCc2ccccc2)c2cccs2)cc1 (centres undefined)	-5.8%
CSc1cccc(NC(=O)Cn2c(=O)n(Cc3ccccc3)c(=O)c3sc4ccccc4c32)c1	?
Cc1c(-c2nsc(NC(=O)c3cccs3)n2)nnn1-c1ccc(Br)cc1	-14%

Next records:
SMILES	ClpP mod
CCn1c(=O)c2cc(C(=O)NCc3ccc(F)cc3Cl)sc2c2ccccc21	-6.0%
O=C(Nc1ccc(Cl)cc1)c1cc(S(=O)(=O)N2CCCc3ccccc32)ccc1F	-25%
CCOC(=O)[C@]12CCCC=C1N(Cc1ccc(Cl)cc1Cl)C(=O)[C@H](CC(=O)N1CCN(C(=O)C3CC3)CC1)C2	0.7%
COC(=O)c1scc(-c2ccc(C)cc2)c1S(=O)(=O)Nc1ccc(NC(C)=O)cc1	-0.5%
COC(=O)C(C)Sc1nc2c([nH]c3ccccc32)c(=O)n1-c1ccc(OC)cc1 (centres undefined)	-18%
O=C(NCc1ccccc1Cl)C1CCN(S(=O)(=O)c2ccc3c(c2)CCCN3C(=O)C2CCC2)CC1	-0.2%
O=C(Nc1cc(F)ccc1F)C1COc2ccccc2C1 (centres undefined)	-1.9%
COc1ccc(Cn2c(C(=O)O)c(CNCc3ccccc3F)c3ccc(OC)cc32)cc1	-6.6%
CCCc1cc(=O)[nH]c(Nc2cc(Cl)cc(Cl)c2)n1	-7.6%
COc1ccc(C2CC(=O)N(CC(=O)Nc3ccc(C(F)(F)F)cc3)c3ccccc3S2)cc1 (centres undefined)	3.7%
Cc1c(CCNS(=O)(=O)c2ccccc2)sc2nc(-c3ccc(Cl)cc3)nn12	-6.5%
COc1cccc(Cn2cnc3c2c(=O)n(C)c(=O)n3C)c1	-3.1%
CCOC(=O)c1c(C)[nH]c(C)c1S(=O)(=O)N1CCC(C(=O)NCc2cccc(C)c2)CC1	-1.0%
C[N+]1(CC(=O)c2ccc(Cl)cc2)CCOCC1	0.0%
CCN(CC)S(=O)(=O)c1ccc(N2CCCCS2(=O)=O)cc1	1.1%
O=C1CS(=O)(=O)C2(C(=O)N(Cc3ccccc3)c3ccccc32)N1c1ccc(F)c(Cl)c1 (centres undefined)	0.3%
Cc1ccc(C(=O)O)cc1NC(=O)c1nsc2ccccc12	-3.9%
CCOC(=O)CNc1ncnc2c1nnn2C	0.4%
CCc1ccccc1NC(=O)CSc1nc2c(c(=O)[nH]1)CN(Cc1ccccc1OC)CC2	-2.2%
CC(C)C[C@H]1CN(CCCC[C@H]2CNC(=O)C(=O)N2Cc2ccccc2)C(=O)C(=O)N1CCc1ccc(O)cc1	2.9%
Cc1ccc(NC(=O)CSc2nnc3nc(C)cc(C)n23)cc1	-2.9%
CCc1nnc2n1N(C(C)=O)C(c1ccc(C(C)(C)C)cc1)=C(C(C)=O)S2	1.3%
CCC(C)NC(=O)C1CCN(S(=O)(=O)c2ccc3c(c2)CCCN3C(C)=O)CC1 (centres undefined)	-0.8%
CCOC(=O)c1c(S(=O)(=O)N2CCC(C(=O)N3CCN(c4cc(C)ccc4C)CC3)CC2)c(C)n(C)c1C	2.9%
Cc1ccc(OCCCn2c(-c3ccc(Cl)cc3)nc3ccccc3c2=O)cc1C	2.0%

Taken from above.
For ClpP mod, O=C(Nc1ccc(Cl)cc1)c1cc(S(=O)(=O)N2CCCc3ccccc32)ccc1F is listed with -25%
For ClpP mod, Cc1ccc(OCCCn2c(-c3ccc(Cl)cc3)nc3ccccc3c2=O)cc1C is listed with 2.0%
For ClpP mod, COc1ccc(C2CC(=O)N(CC(=O)Nc3ccc(C(F)(F)F)cc3)c3ccccc3S2)cc1 (centres undefined) is listed with 3.7%
For ClpP mod, CCn1c(=O)c2cc(C(=O)NCc3ccc(F)cc3Cl)sc2c2ccccc21 is listed with -6.0%

Of the compounds above, 3 contain bromine:
SMILES	ClpP mod
Cc1ccc2cccc(NC(=O)c3ccc(-c4ccc(Br)cc4)o3)c2n1	0.1%
Cc1c(-c2nsc(NC(=O)c3cccs3)n2)nnn1-c1ccc(Br)cc1	-14%
CC1=Nc2cc(C(=O)NC3CCCC3)ccc2Sc2ccc(Br)cc21	0.9%

(listing goes on)
SMILES	ClpP mod
Cc1ccc(C)c(CN2CCC(CNC(=O)c3cc4ccc5cccnc5c4[nH]3)CC2)c1	-1.5%
Cc1ccc(CN2CCN(C3CCN(C(=O)c4ccccc4)CC3)C(=O)C2=O)cc1	1.3%
CCN(Cc1ccccc1)S(=O)(=O)c1ccc(F)c(C(=O)Nc2ccc(C(C)C)cc2)c1	-0.2%
COc1cc(NC(=O)C(Cc2ccccc2)NS(=O)(=O)c2cccc3nsnc23)cc(OC)c1 (centres undefined)	-2.4%
O=C(CSc1nc2c([nH]c3ccccc32)c(=O)n1-c1ccccc1)Nc1ccc(Cl)c(Cl)c1	-8.2%
Cc1ccc(-n2cc(C(=O)OCc3ccc(Cl)cc3)c3ccccc3c2=O)cc1	-3.7%
CCOC(=O)c1ccc(NC(=O)CN(Cc2ccc(C)cc2)S(=O)(=O)c2ccc(C)cc2)cc1	-0.3%
Cc1cccc(NC(=O)c2ccc(C(=O)Nc3cccc(C)c3C)cc2)c1C	-1.2%
CCN1CCSc2ccc(C(=O)NCc3ccc(OC)cc3)cc21	4.3%
